From PubChem
NPYLR7 ag: agonists of mosquito NPYLR7 receptor, primary screen, cell-based, Aedes aegypti, calcium fluorescence, mosquito biting behavior; Aedes aegypti neuropeptide Y-like receptor 7 (NPYLR7); 270,000 compounds, 0.15% hits; activation, % at 10 µM; HEK293T NPYLR7/Galpha15, GCaMP6s calcium fluorescence; in the data active means activation above about 40%;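 further: 0% = vehicle and 100% = reference agonist at the receptor; some compounds past the cut are filed as inactive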
NPYLR7 ag max-min: second read-out of NPYLR7 ag, no call of its own (marks repeat the call); activation, %; measured here: Max-Min RFU normalised activation; some inactives read as strong as hits;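 span of the calcium signal over five minutes; 0% = vehicle and 100% = native peptide agonist; compound fluorescence can raise it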
Active calls of the source: *; & = joins results of further samples.

Compound | NPYLR7 ag | NPYLR7 ag max-min
CN1CCN(C2=CC(=O)OC23CCCCC3)CC1 | 8 | 5
CCOC(=O)c1ccc(OC2CC3CCC(C2)N3C(=O)c2ccc(CSc3cc(OC)ccc3OC)cc2)cc1 (stereo not drawn) | 22 | 17
CCC/C=C/c1cc(C(=O)O)cc(S(=O)(=O)N2CCCC2)c1 | -1 | -4
O=C(c1sc2ccccc2c1Cl)N1CCN(S(=O)(=O)Cc2ccccc2)CC1 | 5 | 2
CCN(CCO)Cc1csc2c(F)c(F)c(F)c(F)c12 | 8 | 11
Oc1c(C(Nc2nccs2)c2cccnc2)ccc2cccnc12 (stereo not drawn) | 3 | 5
COc1ccc(C(O)C(=O)N2CCC(O)(CO)CC2)cc1 (stereo not drawn) | 8 | 6
NS(=O)(=O)c1ccc(CCn2cnnc2)cc1 | 1 | -2
CCN(CC)S(=O)(=O)c1ccc2c(c1)nc(SCc1ccc(Cl)s1)n2C(C)C | -4 | -5
COc1ccc(CNC(=O)c2sc(=O)n(Cc3ccc(F)cc3)c2C)cc1 | 15 | 7

Complete entries, quoted from the list. Screens in order: NPYLR7 ag	NPYLR7 ag max-min
Listed for COc1ccc(CNC(=O)c2sc(=O)n(Cc3ccc(F)cc3)c2C)cc1 = 15	7
Listed for O=C(c1sc2ccccc2c1Cl)N1CCN(S(=O)(=O)Cc2ccccc2)CC1 = 5	2
Listed for COc1ccc(C(O)C(=O)N2CCC(O)(CO)CC2)cc1 (stereo not drawn) = 8	6
Listed for CCN(CC)S(=O)(=O)c1ccc2c(c1)nc(SCc1ccc(Cl)s1)n2C(C)C = -4	-5
Listed for NS(=O)(=O)c1ccc(CCn2cnnc2)cc1 = 1	-2

(list continues)
Compound | NPYLR7 ag | NPYLR7 ag max-min
O=C(Nc1ccccc1Br)N1CCSC1c1ccc(OCc2ccccc2)cc1 (stereo not drawn) | -11 | -4
O=C(Nc1ccc(Cc2ccncc2)cc1)c1cc(-c2ccccc2)nc2ccccc12 | -11 | -14
Cc1nc(NC2CCS(=O)(=O)C2)c2c3c(sc2n1)CCC3 (stereo not drawn) | 2 | 4
Cc1cnccc1N1CCCN(Cc2ccc(Sc3nncn3C)o2)CC1 | -1 | -3
COc1cc(F)ccc1NC(=O)CCNS(=O)(=O)c1ccc2c(c1)CCCC2 | 4 | 3
CCc1nc2n(n1)C(=O)C(C(c1cccc(OC)c1)N1CCN(C(C)=O)CC1)S2 (stereo not drawn) | -4 | -8
O=c1c(Cl)c(NCc2cccnc2OC2CCCC2)cnn1-c1ccc(F)cc1F | 6 | 4
Cc1ccc2ncn(C3CCN(C(=O)Cc4ccccc4C)CC3)c2c1 | 6 | -1
O=C(CCc1cscn1)NC1(c2ccc(Cl)cc2)CC1 | 5 | 2
Cc1ccc(/C=C/C2=NC(=C\c3ccccc3Cl)/C(=O)O2)cc1 | -8 | -13
CCOc1nn(CC)cc1C(=O)NCC1CCCO1 (stereo not drawn) | 3 | 4
CCNC(=O)NC(=O)COC(=O)c1oc2ccccc2c1C | -6 | -11
CCCc1c(C)nn(-c2ccc(C(=O)N[C@@H]3CCCc4ccccc43)cc2)c1C | -5 | -15
O=C(NC(c1ccccc1)c1ccccc1)C1CCCN(S(=O)(=O)c2cccs2)C1 (stereo not drawn) | 0 | 5
CCN(CC)C1=C(c2c(C)[nH]n(-c3ccc(F)cc3)c2=O)C(=O)N(c2cccc(C)c2)C1=O | 5 | 8
COc1cccc(C(=O)N2CCN(C(C(=O)NCCCN3CCCCC3C)C3CCCC3)CC2)c1 (stereo not drawn) | -5 | -4
O=C(Cn1nc(-c2cccs2)c2sc(N3CCOCC3)nc2c1=O)c1ccc2c(c1)CCCC2 | -3 | -8
CCOC(=O)c1ccccc1NC(=O)CCN1C(=O)c2ccccc2C1=O | -7 | -11
Cc1cc(C)c(C)c(S(=O)(=O)Nc2ccc3cn[nH]c3c2)c1C | -4 | -6
O=C(Nc1ncn[nH]1)C1CC1c1ccc(Cl)cc1Cl (stereo not drawn) | 2 | 2
CCN(CC)Cc1cnc2c(C(=O)N3CCC(c4ccccc4)CC3)cnn2c1 | 1 | -2
CCCc1nnc(C(=O)N2CCC(O)(c3ccc(C)cn3)CC2)o1 | 19 | 8
Cc1oc(-c2ccc(Cl)cc2)nc1CSc1nc2c(c(=O)[nH]1)CCC2 | -1 | -4
CCSc1nc2c(c(=O)n(C)c(=O)n2C)n1Cc1ccccc1 | 15 | 1
Cn1c(O)c(C=Nc2cccc([N+](=O)[O-])c2)c(=O)n(C)c1=O | -2 | -5
Cn1c(-c2nc(C(=O)N3CCN(c4ccccn4)CC3)cs2)cc2ccccc21 | 2 | -2
O=C(CC1CSc2nc3c(c(=O)n21)CCC3)N1CCN(c2cccc(Cl)c2)CC1 (stereo not drawn) | -2 | -2
C=c1ccccc1=c1[nH]/c(=C\c2ccc(F)cc2)c(=O)o1 | -2 | -1
O=C(Cn1cc(OCc2ccccc2F)c(=O)cc1CO)NCc1ccccc1Cl | 0 | -1
CC(NC(=O)CON=Cc1cccs1)C1CC2CCC1C2 (stereo not drawn) | -4 | -4
CCC(C)c1ccc(NC(=O)COc2nnc3ccccn23)cc1 (stereo not drawn) | 5 | 2
Cc1ccc(C(c2ccccc2)N2CCN(C(=O)c3cccc(C(F)(F)F)c3)CC2)cc1 (stereo not drawn) | -2 | 11
CC(=O)Oc1c(-c2ccc(N)cc2)c(-c2ccccc2F)nn1-c1ccc(C)cc1C | 27 | 17
CCOc1cc(Nc2ccc(NC(=O)Nc3cccc(C)c3)cc2)nc(C)n1 | 10 | 1
O=c1cc(N2CCN(Cc3ccccc3)CC2)[nH]c(=O)n1-c1ccc(Cl)cc1 | 7 | 9
C=C(C)CNc1ccc(C(=O)N2CCC(Cn3cccn3)CC2)cn1 | 14 | 2
CCCCC(=O)Nc1ccc(Nc2nc(C)cc(N3CCOCC3)n2)cc1 | 13 | 8
CC(C)(C)C(Cn1ccnc1)NS(=O)(=O)NCc1ccccc1 (stereo not drawn) | 16 | 2
Cc1ccc(S(=O)(=O)c2c(C)nn(C(C)(C)C)c2OC(=O)C(C)C)cc1 | 1 | 28
CCc1ccc(C(=O)OC(C#N)C2CCCC2)o1 (stereo not drawn) | -2 | -7
Cc1cc(COc2cccc(C(=O)NCCO)c2)c2ccccc2n1 | -1 | -2
CC(=O)c1ccc(-c2cc(NCCN(C)C)nc3[nH]ccc23)nc1 | 1 | -3
CCCS(=O)(=O)Oc1cc(Cl)ccc1-c1nc2c(C)cccc2o1 | 33 | 36
N#CC(C#N)=Cc1cn(-c2ccccc2)nc1-c1ccc(Cl)cc1 | -3 | -5
COC(=O)[C@@H]1C[C@H](NC(=O)C2(Nc3ccc(C)cc3)CCCC2)CN1C | 2 | 0
O=C(c1ccc2c(c1)OCCO2)N1CCOC(CCc2ccccc2)C1 (stereo not drawn) | 15 | 8
Cc1cc2cccc(C(=O)N3CCC4(CCCN(C)C4=O)C3)c2o1 (stereo not drawn) | 0 | -3
CCOC(=O)CCC(=O)Nc1ccc(C2SCC(=O)N2c2cc(F)ccc2F)cc1 (stereo not drawn) | 21 | 18
CCOC(=O)c1[nH]c(C)c(C(=O)C(C)N(CCOC)C(=O)C2C[C@H]2c2ccccc2)c1C (stereo partly drawn) | -6 | -5
COc1ccc(OCc2ccc(C(=O)Nc3nncs3)cc2)cc1 | 7 | 4

Entries from the list above containing a tert-butyl group (2):
Compound | NPYLR7 ag | NPYLR7 ag max-min
CC(C)(C)C(Cn1ccnc1)NS(=O)(=O)NCc1ccccc1 (stereo not drawn) | 16 | 2
Cc1ccc(S(=O)(=O)c2c(C)nn(C(C)(C)C)c2OC(=O)C(C)C)cc1 | 1 | 28

Further entries.
Compound | NPYLR7 ag | NPYLR7 ag max-min
Cc1sc2nc(SCC(=O)Nc3ccccc3)n(Cc3ccco3)c(=O)c2c1C | 1 | 1
CC1CN(Cc2ccccc2)c2nc3c(c(=O)n(CCc4ccccc4)c(=O)n3C)n2C1 (stereo not drawn) | 6 | 5
Cc1ccccc1N1CCN(C(=O)c2cc(-c3ccccc3)nc3cc(C(C)(C)C)nn23)CC1 | 6&-3 | 4&2
Clc1ccc(C2CC(c3ccccc3)=Nc3ncnn32)c(Cl)c1 (stereo not drawn) | 5 | 10
Cc1c(C)n2c3c(=O)n(CC(N)=O)c(=O)n(C)c3nc2n1CC(C)C | -4 | -7
CC1CCN(Cn2cnc3c2c(=O)n(C)c(=O)n3C)CC1 | -3 | -8
Cc1ccn2c(NC(=O)Cc3ccc(F)cc3)c(-c3cccc(F)c3F)nc2c1 | -6 | -4
CN1CCCCC1CCN1CCN(C/C=C/c2ccccc2)CC1 (stereo not drawn) | 3 | 1
Nc1cc(=O)[nH]c2nnc(SCc3ccc(Cl)cc3Cl)n12 | 5 | 4
CC(=O)N1CCc2cc(NC(=O)C3(C)CCN3Cc3ccccc3OC(F)F)ccc21 (stereo not drawn) | 6 | 0
OCCN(Cc1ccccc1)Cc1nc(-c2ccc3c(c2)OCO3)no1 | 14 | 3
COc1cc(-c2ccc(C(C)N3CCOCC3)cc2)cc2cc(C(=O)O)oc12 (stereo not drawn) | 6 | 6
C=CCN1CC(O)CN(C(=O)COc2ccccc2)CC1=O (stereo not drawn) | 1 | 12
Cc1noc(C)c1CN(C)C(=O)c1cccc(NCc2cccnc2)c1C | -3 | -5
Cc1nnc(NC(=O)CSc2nc3c([nH]c4ccccc43)c(=O)n2-c2ccccc2)s1 | 1 | 9
c1cn(Cc2ccsc2)c(-c2cnc[nH]2)n1 | 2 | 4
Cc1cccc(-c2noc(Cn3ccn4nc(-c5cccs5)cc4c3=O)n2)c1 | -1 | 1
O=c1[nH]nc(SCc2ncc(-c3ccccc3)o2)n1C1CC1 | -11 | -10
CCC(C)CN(CC(=O)N1CCc2sccc2C1COc1ccc(Cl)c(C)c1)C(=O)C1CCCC1 (stereo not drawn) | -3 | -1
CCC(=O)C1=C(c2ccc(C(C)(C)C)cc2)N(C(=O)CC)n2c(CC)nnc2S1 | 22 | 18
COc1nc(-c2cccc(C(F)(F)F)c2)n(-c2ccc(NC(=O)c3cccc(F)c3)cc2)n1 | 13 | 14
O=C(CN(C(=O)c1cc(Cl)cc(Cl)c1)C1CC1)N(Cc1ccc2c(c1)OCO2)Cc1cccs1 | 9 | 14
O=C(c1ccco1)N(CCn1cccn1)c1nc2ccccc2s1 | -4 | -9
COc1cc(-c2nc3sc4c(c3c(=O)[nH]2)CCCS4)ccc1O | 1 | -3
CC1(C(=O)NS(=O)(=O)c2ccc(Cl)cc2)CCN1C(=O)CC1CCCC1 (stereo not drawn) | 15 | 16
CCOc1ccc(/C=C2/N=C(c3ccc(C(C)(C)C)cc3)OC2=O)cc1 | -2 | -1
NC(=O)C1CCN(c2ccc3cccc(OCc4cccnc4)c3n2)CC1 | 16 | 12
C=CCn1nnc2sc3c(c2c1=O)CCC(C)C3 (stereo not drawn) | 5 | 2
CC(CNC(=O)c1csc(-c2ccco2)n1)N1CCCC1 (stereo not drawn) | 4 | 1
COc1ccccc1C(=O)Nc1ccnn1C1CCN(C(=O)C2=C(C)OCCO2)CC1 | -2&8 | -8&3
CC(=O)Nc1ccc(S(=O)(=O)Nc2ccc(-c3ccc(N4CCCCC4)nn3)cc2)cc1 | -1 | -2
FC(F)c1cc(C2CC2)[nH]n1 | -7 | -13
COc1ccc(N2C(=O)C3C4c5ccccc5C(c5ccccc54)C3C2=O)cc1 (stereo not drawn) | -2 | -6
CC(C#N)CSc1nnc(-c2c[nH]c3ccccc23)n1C1CC1 (stereo not drawn) | -6 | -7
CC1(C)C(=O)Nc2ccccc2N1C(=O)CN1CCN(S(=O)(=O)c2ccccc2)CC1 | -5 | -6
COCCNC(=O)c1ccc(CSc2nnc(-c3ccncc3)n2Cc2ccccc2)cc1 | 2 | 7
CC(C)N1C(=O)COCc2cc(-c3cccc(O)c3)ccc21 | 11 | 6
CCOC(=O)c1cc(-c2ccc(N3CCN(C(=O)c4cnn(C)c4Cl)CC3)cc2)n(-c2cccc(F)c2)n1 | 25 | 10
CCN1CCN(CC(=O)NC(C)COC)CC1 (stereo not drawn) | -4 | -8
CCc1nc(SCC(=O)N2CCN(Cc3ccc(C)c(C)c3)C(=O)C2)n[nH]1 | 11 | 7
N#Cc1ccc(OCC(O)Cn2nnc(-c3ccc(Cl)cc3)n2)cc1 (stereo not drawn) | 16 | 14
O=C(Nc1cc(Cl)ccc1Cl)c1ccc(OC(F)(F)F)cc1 | 2 | 0

A portion of the library. The share of hits here may be higher or lower than overall.
